# GALR2 ag: GALR2 receptor agonists, primary screen, cell-based; 0.48% of 140,000 active; AID 803, 2007; Galanin receptor type 2 (Homo sapiens), O43603; activation, %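 (tested at 5 µM)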; GALR2-expressing cells, agonist activation read-out;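 active = above mean plus 3 SD of all compounds, about 5% in these data, not always enough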;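 note: 0% = vehicle buffer wells and 100% = reference agonist at full effect; tested in CHO reporter cells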
# Target sequence (O43603 whole entry, looked up): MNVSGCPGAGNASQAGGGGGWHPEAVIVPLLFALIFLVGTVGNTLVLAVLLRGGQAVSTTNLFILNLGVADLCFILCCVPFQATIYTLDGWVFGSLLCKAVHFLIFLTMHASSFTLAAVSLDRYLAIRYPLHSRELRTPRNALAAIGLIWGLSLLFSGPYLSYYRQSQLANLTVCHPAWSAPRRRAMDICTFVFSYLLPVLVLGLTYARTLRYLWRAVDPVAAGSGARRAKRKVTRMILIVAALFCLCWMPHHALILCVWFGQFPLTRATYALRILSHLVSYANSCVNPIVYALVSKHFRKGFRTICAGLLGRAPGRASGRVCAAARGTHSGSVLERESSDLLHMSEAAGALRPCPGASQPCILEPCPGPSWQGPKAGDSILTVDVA
# RGS16-Gao HTS: modulators of RGS16 binding to Galphao, primary screen, biochemical, human proteins, multiplexed bead flow cytometry; Regulator of G-protein signaling 16 (Homo sapiens) + Guanine nucleotide-binding protein …; bead-based flow cytometry RGS16-Galphao binding, fluorescence; actives lie on both sides; binding response (% of control), % at 10 µM; 0.38% of 220,000 active; AID 1441, 2008;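 active = below 25% or above 175%, edge rows of some plates excepted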;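 note: Galphao activated by GDP with aluminum fluoride before binding; 100% = wells without compound and 0% = beads without RGS; some results beyond the cut were filed as inactive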
# HSV augment: enhancers of HSV replication in host cells, fold increase, host cell viability. maximum fold increase. HSV replication augmentation in cells. 0.005% of 220,000 active;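 active = peak rise of 1.5-fold or more in the series; tested in PC3 cells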;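 note: first round at 10 µM; read as green reporter fluorescence; hits show the peak of a series up to 25 µM; 1 = signal of infected wells without compound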
# PKD1 inh: inhibitors of human PKD1 kinase, biochemical, fluorescence polarization; inhibition, %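 (about 10 µM by stock and volumes)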; PKD1 kinase fluorescence polarization assay; AID 797, 2007; 0.056% of 200,000 active;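 active = inhibition of 50% or more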;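 note: controls were vehicle for no effect and a reference inhibitor for full effect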
# INS promoter inh: inhibitors of insulin promoter-driven GFP, primary screen, imaging, TRM-6 cells (human fetal islet line), eGFP reporter, cell count; reporter expression induced with tamoxifen; inhibition, % at 2 µM; 0.9% of 130,000 active;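 active = inhibition above the mean plus 3 SD, with well images judged a real hit on visual review, cut at about 60% in these data, passing the limit was not always enough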
# INS promoter inh cell count: also measured in INS promoter inh; calls as there; normalized cell count, %; measured here: cell count, toxicity; reference of the scale not given here;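 cells exposed to compound for 48 h; stained nuclei by imaging scaled within each plate; lower means fewer cells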
# HSV augment primary fold: recorded beside HSV augment, whose call it bears; fold increase; compound at 10 µM; measured here: primary screen fold increase 10 uM; tested in PC3 cells;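 GFP signal in the first replicate; 1 = infected wells without compound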
# The depositor's hits bear a star; i = inactive; . = no result given.
SMILES,GALR2 ag,RGS16-Gao HTS,HSV augment,HSV augment primary fold,PKD1 inh,INS promoter inh,INS promoter inh cell count
CSc1ncc(CN2CCc3c([nH]c4ccccc34)C2c2cccc(C)n2)cn1 (stereo unspecified),.,104,i,0.93,.,.,.
COc1cc(/C=C/C(=O)OCC(=O)NC(=O)NC(C)(C)C)cc(OC)c1OC,.,154,i,0.97,-6,33,68
C=CCn1c(O)c(N=NC(=S)Nc2cccc(C)c2)c2ccccc21,-3.0,107,i,0.76,-9,-100,32
Cc1cc(/C=C2/C(=N)N3C(=NC2=O)SN=C3S(C)(=O)=O)c(C)n1-c1ccccc1,.,95,i,1.1,8,.,.
CCOC(=O)c1cccc(N2C(=O)Nc3ccccc3N2O)c1,0.0,106,i,1,-3,31,119
Cc1nc(-c2nc(-c3c(C(=O)NNC(=O)Nc4cccc(Cl)c4)noc3C)cs2)cs1,.,93,i,0.94,.,.,.
Cc1csc(NC(=O)CSc2nnc(-c3ccoc3C)o2)n1,-3.2,97,i,0.82,-3,.,.
CCn1cc(CN2CCN(Cc3ccsc3)C(CCO)C2)cn1 (stereo unspecified),.,97,i,0.94,-3,.,.
COC(=O)c1cccc(NC(=O)C2COc3ccccc3O2)c1 (stereo unspecified),-1.0,101,i,0.95,-4,17,173
C#CCOCCOCCOCCNc1nc(N2CCOCC2)nc(N2CCN(C(=O)[C@H]([C@@H](C)CC)n3cc(CCCN=C(N)N)nn3)CC2)n1,-2.3,88,i,0.82,-15,0,102
COc1ccc(-n2c(Cc3cccn3C)nnc2SCC(=O)Nc2cccc(NC(C)=O)c2)cc1,-1.6,63,i,0.96,-8,.,.
NC(=O)C(c1ccc(Sc2ccccc2)nn1)c1ccc(Cl)cc1Cl (stereo unspecified),0.0,100,i,0.88,-2,.,.
CCCCCC(=O)NC(=S)Nc1ccc(Br)cc1C,1.1,114,i,0.99,-9,17,69
CC(Cc1ccccc1)N/C=C1\CC(=O)NC1=O (stereo unspecified),-1.4,103,i,0.87,-3,-31,187
O=C1CCC(=O)N1OCCOc1ccc(Cl)c2ccccc12,.,102,i,1,0,.,.
Cc1ccc(S(=O)(=O)Cn2nnnc2C(C(C)C)N2CCSCC2)cc1 (stereo unspecified),1.2,100,i,0.88,-6,-57,52
CCCN(CCC)CC(=O)NCC1(c2ccccc2)CCOCC1,-2.7,111,i,1.1,-8,-21,56
Cc1cc(Br)ccc1OCC(=O)N(Cc1nc(-c2ccccc2)no1)C(C)C,-0.1,101,i,0.94,-9,-100,68
N#C/C(=C\c1cn(CCOc2ccccc2F)c2ccccc12)C(=O)NCc1cccs1,9.2*,125,i,0.97,-10,-18,117
CCN1C(=O)/C(=C\c2ccco2)C(C(=O)OC)=C1C,-3.3,100,i,0.95,2,14,88
O=C(CN1CCCCC1)Nc1ccc(C(F)(F)F)cc1Cl,.,98,i,1.1,.,.,.
CC(CNC(=O)C(C)(C)C)NC(=O)C(C)(C)C (stereo unspecified),0.1,103,i,0.99,1,-10,99
Cc1ccc(OCc2nnc(SCC(=O)N3CCc4ccccc43)n2C)cc1,-1.2,.,i,1.1,0,47,40
O=C(NCc1ccc(Cl)cc1)C1CCC(CNc2c(N3CCCC3)c(=O)c2=O)CC1 (stereo unspecified),.,100,i,1,.,.,.
COc1ccc2oc(=O)c(/C(C)=N/Nc3nc(-c4cc(C)ccc4C)cs3)cc2c1,-2.0,94,i,0.86,-3,-56,102

# 5 consecutive records from above, quoted:
SMILES,GALR2 ag,RGS16-Gao HTS,HSV augment,HSV augment primary fold,PKD1 inh,INS promoter inh,INS promoter inh cell count
N#C/C(=C\c1cn(CCOc2ccccc2F)c2ccccc12)C(=O)NCc1cccs1,9.2*,125,i,0.97,-10,-18,117
CCN1C(=O)/C(=C\c2ccco2)C(C(=O)OC)=C1C,-3.3,100,i,0.95,2,14,88
O=C(CN1CCCCC1)Nc1ccc(C(F)(F)F)cc1Cl,.,98,i,1.1,.,.,.
CC(CNC(=O)C(C)(C)C)NC(=O)C(C)(C)C (stereo unspecified),0.1,103,i,0.99,1,-10,99
Cc1ccc(OCc2nnc(SCC(=O)N3CCc4ccccc43)n2C)cc1,-1.2,.,i,1.1,0,47,40

# The main list resumes, starting 2 compounds before the break.
SMILES,GALR2 ag,RGS16-Gao HTS,HSV augment,HSV augment primary fold,PKD1 inh,INS promoter inh,INS promoter inh cell count
O=C(NCc1ccc(Cl)cc1)C1CCC(CNc2c(N3CCCC3)c(=O)c2=O)CC1 (stereo unspecified),.,100,i,1,.,.,.
COc1ccc2oc(=O)c(/C(C)=N/Nc3nc(-c4cc(C)ccc4C)cs3)cc2c1,-2.0,94,i,0.86,-3,-56,102
CS(=O)(=O)c1sc2nc(-c3cccs3)cc(-c3ccccc3)c2c1N,0.2,92,i,1.2,-12,-8,115
O=C(NCCCN1CCCC1=O)[C@H](CSCc1ccccc1)N1Cc2ccccc2C1=O,.,100,i,0.94,.,.,.
CCC1CCCCN1CC(=O)Nc1cc(C)nn1-c1nc(C)cc(C)n1 (stereo unspecified),1.9,104,i,0.69,0,.,.
CC(=O)Nc1ccc(N2CCN(c3ccc(C(F)(F)F)cn3)CC2)nc1,.,91,i,0.79,.,.,.
Nc1n[nH]c(C2CC2)c1N=Nc1ccc(Cl)c(Cl)c1,.,93,i,0.88,.,.,.
Cc1ccc(OC(=O)c2oc3ccc(F)cc3c2C)c(C)c1,0.9,102,i,0.78,8,.,.
CCCSC(=S)NC1CCS(=O)(=O)C1 (stereo unspecified),-2.4,99,i,0.87,-4,.,.
O=C(COC(=O)c1n[nH]c2ccccc12)Nc1ccccc1,.,99,i,1,-8,.,.
CSCCC(NC(=O)COc1ccccc1)C(=O)Nc1ccc(C)cc1 (stereo unspecified),-1.1,104,i,1,15,47,131
CCC(=O)NC(=S)Nc1cc(C(=O)O)ccc1OC,.,99,i,0.85,-2,21,31
CCC(C)NC(=O)CC1Oc2ccc(Cl)cc2NC1=O (stereo unspecified),-0.8,33,i,1.1,2,.,.
CC(C)(C)c1csc(N(CCC#N)CCC#N)n1,-0.7,95,i,0.97,-2,-35,56
COc1ccc(-c2cc(C(F)(F)F)n3ncc(C(=O)N4CCc5ccccc5C4)c3n2)cc1,.,114,i,0.93,3,.,.
C/C(=C\c1ccccc1)C(=O)Nc1cc(C)on1,-3.2,102,i,0.92,4,23,100
O=C(NCc1cccnc1)c1ccc(S(=O)(=O)N2CCOCC2)cc1,-1.9,94,i,1.2,-10,.,.
CCN1CCN(C(=O)N2CCOCC2)CC1,.,107,i,1,-5,.,.
COc1ccc(/C(C)=N/NC(=O)CNC(=O)/C=C\c2ccco2)cc1,.,92,i,0.8,-3,-57,153
Cc1ccc(S(=O)(=O)N(C)C)cc1[N+](=O)[O-],.,102,i,1,.,.,.
Cc1ccc2cccc(S(=O)(=O)NC3CCS(=O)(=O)C3)c2n1 (stereo unspecified),-1.3,102,i,0.93,-14,-8,128
COc1ccc(C(=S)N2CCCC2)cc1C,-2.5,98,i,0.74,-1,.,.
COc1ccc(CC(=O)O/N=C(\N)Cc2ccc(OC)cc2)cc1,-2.3,101,i,1,-6,.,.
N#CCOC(=O)C1CSC2(c3ccc(Br)cc3)CCC(=O)N12 (stereo unspecified),.,120,i,0.96,1,18,170
Cc1cc(-c2nc(C)c(C(=O)NN)s2)no1,.,101,i,0.86,.,.,.
CN(CC(=O)Nc1cccc(F)c1)CC(=O)Nc1ccccc1[N+](=O)[O-],.,98,i,1,-4,-36,85
Nc1ccc(C(=O)OCc2csc(-c3ccccc3)n2)cc1[N+](=O)[O-],-0.3,105,i,0.91,5,-3,81

# Part of the list above in another layout.
# Values run as follows: GALR2 ag	RGS16-Gao HTS	HSV augment	HSV augment primary fold	PKD1 inh	INS promoter inh	INS promoter inh cell count
- CS(=O)(=O)c1sc2nc(-c3cccs3)cc(-c3ccccc3)c2c1N
→ 0.2	92	i	1.2	-12	-8	115
- C/C(=C\c1ccccc1)C(=O)Nc1cc(C)on1
→ -3.2	102	i	0.92	4	23	100

# As entered above.
# O=C(COC(=O)c1n[nH]c2ccccc12)Nc1ccccc1 in PKD1 inh = -8
# CCN1CCN(C(=O)N2CCOCC2)CC1 in HSV augment primary fold = 1
# O=C(NCc1cccnc1)c1ccc(S(=O)(=O)N2CCOCC2)cc1 in PKD1 inh = -10
# CSCCC(NC(=O)COc1ccccc1)C(=O)Nc1ccc(C)cc1 (stereo unspecified) in PKD1 inh = 15
# CC(C)(C)c1csc(N(CCC#N)CCC#N)n1 in HSV augment primary fold = 0.97
# O=C(NCCCN1CCCC1=O)[C@H](CSCc1ccccc1)N1Cc2ccccc2C1=O in HSV augment primary fold = 0.94

# Remaining list, next part:
SMILES,GALR2 ag,RGS16-Gao HTS,HSV augment,HSV augment primary fold,PKD1 inh,INS promoter inh,INS promoter inh cell count
COc1ccccc1N1CCN(S(=O)(=O)c2ccc(F)cc2)CC1,-1.6,92,i,0.98,-3,22,88
COc1ccc(C(c2nnnn2Cc2cccs2)N2CCC(C(N)=O)CC2)c(OC)c1 (stereo unspecified),-1.3,83,i,1,-12,.,.
C=CCn1c(O)c(C=Nc2ccc(CN3CCCCC3)cc2)c(=O)[nH]c1=S,.,92,i,1.2,.,.,.
COc1ccc(OC(=O)c2cnc3n(c2=O)CCS3)cc1,.,75,i,1,.,.,.
Cc1ccc(SCC(=O)NC(=O)c2ccc(S(=O)(=O)N(C)C)cc2)cc1C,-1.2,88,i,0.99,-5,3,105
Cc1ccnc(NS(=O)(=O)c2ccc(NC(=O)c3ccc4c(c3)OCCO4)cc2)n1,.,100,i,1,-1,.,.
Cc1ccc(C2CC(c3cccc(Br)c3)Nc3nnnn32)cc1 (stereo unspecified),-1.0,106,i,0.98,1,-19,33
O=C(CC(=O)N/N=C\c1ccc([N+](=O)[O-])cc1)NCCc1ccccc1,.,95,i,0.92,-6,.,.
CC(C)CC(NC(=O)OC(C)(C)C)C(=O)O (stereo unspecified),.,92,i,0.95,.,.,.
Cn1c(CNc2nc(-c3ccccc3)cs2)nnc1SCC(=O)c1ccccc1,0.1,102,i,0.8,-13,.,.
CC1CCCC(C)N1C(=O)CSc1nnc(NC(=O)c2cccs2)s1 (stereo unspecified),0.4,100,i,0.99,-5,-58,105
C/C=C/C(=O)Nc1nnc(C2CCCCC2)s1,.,101,i,0.72,-6,-14,105
O=C(Nc1ccc2cn[nH]c2c1)c1c(Cl)cccc1Cl,-1.3,99,i,0.98,-1,.,.
COc1cc(OC)cc(C(=O)N2CCN(Cc3cccc(F)c3)CC2)c1,-2.0,108,i,0.81,-4,33,93
